# Screens from PubChem BioAssay.
# Mtb bLac sens: beta-lactam sensitization of Mtb H37Rv, H37Rv; M. tuberculosis H37Rv growth with meropenem, percent inhibition; hits of this screen are not shown here; inhibition, % at 25 µM; 330,000 tested, 0.27% active; AID 434955, 2010;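 active = about 74% or more and at least 40 points above the plate without the antibiotic, then above 30% in a dose series; inconclusive = first-round hits that could not be retested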;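 note: growth measured after seven days incubation then overnight dye step; 0% = bacteria only wells and 100% = bacteria with antibiotic; twin plates without the antibiotic show which effects depend on it; some results filed as inactive read as strong as hits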
# Arbovirus anti: antivirals against arbovirus infection, primary screen, cell-based, full library, 10K replicate subset | arbovirus infection cell-based antiviral screen | inhibition, % at 10 µM | 200,000 tested, 0.37% active;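 active = inhibition from about 30%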;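 note: bluetongue infection of BSR cells; cell survival read as ATP light after 72 h; 0% = infected wells without compound and 100% = uninfected wells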
# YopH PTP inh: YopH tyrosine phosphatase inhibitors, primary screen, biochemical, fluorescence Ex485/Em525 | 140,000 tested, 0.16% active | inhibition, %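 (about 10 µM by stock and volumes)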 | AID 898, 2007 | YopH tyrosine phosphatase [Yersinia enterocolitica];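 active = inhibition of 50% or more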;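 note: controls were vehicle for no effect and minimum signal wells for full effect; inactives centre near -20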
# Mtb growth: M. tuberculosis H37Rv growth inhibitors, H37Rv strain (AID 1626); M. tuberculosis H37Rv growth inhibition; higher % means a stronger effect; inhibition, % at 10 µM; hits with a dose series show IC50 in µM; 220,000 tested, 0.95% active;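 active = confirmed in a dose series; inconclusive = inhibition above 80% but not taken into the dose series; inactive = below 80% or under 30% at every dose of the series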;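 note: bacteria incubated seven days before Alamar blue readout; 0% = bacteria only wells and 100% = bacteria with antibiotic wells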
# RecA intein inh: Mtb RecA intein splicing inhibitors, primary screen, biochemical, fluorescence, HTS; cell-free RecA intein splicing; AID 2221, 2009; 290,000 tested, 0.75% active; inhibition, %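 (about 9 µM by stock and volumes)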; Protein RecA (Mycobacterium tuberculosis (strain ATCC 25618 / H37Rv)), P9WHJ3; in the data active = inhibition above about 30%; inconclusive = no clear call, values can overlap the other calls;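 note: 0% = vehicle wells and 100% = reference inhibitor control wells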
# Target sequence (P9WHJ3 whole entry, looked up): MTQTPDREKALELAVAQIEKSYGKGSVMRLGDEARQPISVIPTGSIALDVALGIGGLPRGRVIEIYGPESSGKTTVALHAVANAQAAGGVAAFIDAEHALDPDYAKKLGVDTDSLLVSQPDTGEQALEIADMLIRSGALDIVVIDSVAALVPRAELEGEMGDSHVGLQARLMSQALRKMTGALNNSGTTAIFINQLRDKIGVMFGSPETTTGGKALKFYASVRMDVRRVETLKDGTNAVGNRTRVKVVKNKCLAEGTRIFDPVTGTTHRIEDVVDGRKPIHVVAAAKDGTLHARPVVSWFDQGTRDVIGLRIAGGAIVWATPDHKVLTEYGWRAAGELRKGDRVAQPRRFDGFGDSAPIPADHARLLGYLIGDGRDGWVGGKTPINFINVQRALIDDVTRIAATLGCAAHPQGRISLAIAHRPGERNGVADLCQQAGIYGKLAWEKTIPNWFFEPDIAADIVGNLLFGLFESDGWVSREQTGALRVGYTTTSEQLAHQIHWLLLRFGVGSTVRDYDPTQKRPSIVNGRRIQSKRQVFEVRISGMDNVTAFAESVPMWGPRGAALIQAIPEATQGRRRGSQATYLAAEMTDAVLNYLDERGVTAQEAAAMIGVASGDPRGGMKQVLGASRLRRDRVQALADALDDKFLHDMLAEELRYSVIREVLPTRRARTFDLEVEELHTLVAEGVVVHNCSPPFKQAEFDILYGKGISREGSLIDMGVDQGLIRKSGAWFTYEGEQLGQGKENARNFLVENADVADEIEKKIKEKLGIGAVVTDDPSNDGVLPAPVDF
# Arbovirus anti repeat: further read-out of Arbovirus anti, marked with its call; inhibition, %; measured here: 10K subset replicate screen; many hits read low in the repeat;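 first of two repeat runs on a subset; 0% = infected and 100% = uninfected wells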
# Numbers without * were called inactive; ? = inconclusive; nt = no result given.
SMILES,Mtb bLac sens,Arbovirus anti,YopH PTP inh,Mtb growth,RecA intein inh,others
COc1c2ccc(C(=O)NCCCCc3ccccc3)cc2nn1C,-9,3,-25,-13%,-0.9,
COc1cc(/C=C2\SC(=S)N(N3CCOCC3)C2=O)ccc1O,-4,nt,nt,nt,-2.1,
O=C(Nc1cc(C(F)(F)F)ccc1N1CCOCC1)c1c(F)c(F)c(F)c(F)c1F,-5,15,-61,nt,1.0,
O=C(CCc1ccccc1)N=C1SC2CS(=O)(=O)CC2N1Cc1ccccc1 (stereo unspecified),-1,nt,nt,nt,2.5,
O=C(Nc1ccccc1C(=O)N1CCOCC1)c1cc2ccccc2o1,2,nt,nt,nt,-0.8,
CC1(C)CC(=O)CC(=Nc2ccc3[nH]c(=O)[nH]c3c2)C1,-5,5,-30,-4%,-2.1,
COc1cccc(NC(=O)CNC(=O)c2ccc(OC)c(OC)c2)c1,-3,0,nt,-1%,0.6,
COc1ccccc1Nc1cc(C(=O)N2CCc3ccccc3C2)c2ccccc2n1,48,12,nt,11%,12,
COc1ccc(C2=NS(=O)(=O)N(C)C(C(=O)N3CCOCC3)=C2)cc1OC,0,nt,nt,nt,4.4,
COCCn1c(C)c(C)c2c(NCCc3ccccc3)ncnc21,1,nt,nt,nt,-4.3,
O=C(Nc1cc(Cl)ccc1N1CCOCC1)c1cc2ccccc2o1,0,nt,nt,nt,-3.8,
CC(C)(C)OC(=O)[C@H](Cc1ccccc1)NC(=O)c1[nH]cnc1C(=O)N[C@@H](Cc1ccccc1)C(=O)OCc1ccccc1,-5,nt,nt,nt,1.0,
COC(=O)C(C(=O)Nc1ccccc1C)C1CCCC1 (stereo unspecified),18,-2,-35,-5%,1.3,
CC1CC(C)CN(C(=O)C2CCC(CNc3c(N4CCCCC4)c(=O)c3=O)CC2)C1 (stereo unspecified),100,nt,nt,?,2.9,
Cc1ccc(C)n1-c1cccc(NC(=O)c2ccccc2)c1,-3,-12,14,5%,4.3,
CCOC(=O)COc1ccc2ccccc2c1/C=C/[N+](=O)[O-],100,-32,-16,3µM*,4.2,
CCCCN(C(C)=O)C1CC(=O)N(c2ccc(OCCC)cc2)C1=O (stereo unspecified),-7,nt,nt,-4%,1.5,
CC(=NCCCN1CCOCC1)c1c(O)n(-c2ccccc2C)c(=O)[nH]c1=O,5,3,11,-3%,0.6,
O=C(COC(=O)c1oc2ccccc2c1COc1ccccc1)NCCN1C(=O)CSC1=O,9,-1,-22,-1%,-0.5,
Cc1ccc(CNS(=O)(=O)c2ccc3c(c2)C(C)(C)C(=O)N3C)cc1,4,nt,nt,nt,-0.7,
CC(C)NC(=O)c1cc(-c2ccco2)on1,-7,2,-32,-2%,-1.1,
CC(=O)Nc1ccc(-c2nnc(SCC(=O)NCc3ccco3)n2C)cc1,?,2,1,0%,0.5,
CC1(C)Cc2c(C#N)c(SCCC#N)nc(N3CCOCC3)c2CO1,-1,nt,nt,nt,-3.7,
Cc1ccc(C)c(N2CCN(S(=O)(=O)c3ccc4c(c3)OCCO4)CC2)c1,-9,13,5,-3%,12,
COc1ccc(N(Cc2cc3ccccc3[nH]c2=O)S(C)(=O)=O)cc1,1,5,4,-1%,-40,

# Later entries:
SMILES,Mtb bLac sens,Arbovirus anti,YopH PTP inh,Mtb growth,RecA intein inh,others
C/C(=N/NC(=O)Cc1c(C)[nH][nH]c1=O)c1ccc(O)cc1,2,-6,-30,-5%,2.5,
Cc1nn(Cc2ccc(Cl)cc2)c2sc(C(=O)O)cc12,-6,1,nt,-2%,-0.9,
CCOC(=O)c1ccc(NC(=O)CN2C(=O)CCC2=O)cc1,-3,7,13,-8%,-0.1,
O=C(O)c1ccccc1C(=O)NC1=NN(c2ccccc2)CC1,64,nt,nt,nt,-2.7,
CCC1CCCCN1CCCNC(=O)C1CCN(c2nnc(-n3cccc3)s2)CC1 (stereo unspecified),0,nt,nt,nt,-1.0,
CCOC(=O)CN(C(=O)CSc1nnc(CNc2ccc(C)cc2C)o1)c1ccccc1,6,2,-47,-5%,0.2,
CCN(CC)S(=O)(=O)c1ccc(C(=O)Oc2ccc3c(c2)OCO3)cc1,97,3,-1,37%,nt,
CC1=C(C(=O)Nc2ccccc2)C(c2ccc3c(c2)OCO3)C2=C(CCCC2=O)N1 (stereo unspecified),-4,7,-15,5%,-4.7,
O=C(NC1CCCCCC1)c1nc2ncccn2n1,2,0,-41,nt,1.0,
CCOCCCNc1ccc(N2C(=O)CCCC2=O)cc1[N+](=O)[O-],1,nt,nt,nt,-1.6,
N#Cc1cccc(NC(=O)CNc2cccc(S(=O)(=O)N3CCCC3)c2)c1,-14,nt,nt,nt,2.5,
COc1cc2c(C(=O)N3CCN(c4ccccc4F)CC3)cn(C)c(=O)c2cc1OC,-4,7,nt,-6%,-0.6,
COc1ccc(CNC(=O)CSc2ccc(Br)cc2)cc1OC,7,-1,-27,-6%,-1.1,
CCOc1ccc(OCCOCCOc2ccccc2Cl)cc1,8,5,-19,21%,7.3,
CC(=O)Nc1ccc(S(=O)(=O)N2CCN(C3CCCCCCC3)CC2)cc1,-4,-7,-30,3%,-0.4,
O=C(CS(=O)CC(=O)Nc1ccccc1-c1ccccc1)Nc1ccc(F)cc1 (stereo unspecified),-2,nt,nt,nt,1.0,
O=C(Nc1ccccc1)C1=C[C@H](c2ccccc2)C[C@H](OCc2ccc(CO)cc2)O1,5,-1,nt,nt,7.4,
Cc1ccc(/C=N/NC(=O)CSc2nc3nc(C)cc(C)n3n2)cc1,-2,4,-26,-5%,0.7,
N=c1c(C(=O)NC2CCCCC2)cc2c(=O)n3ccccc3nc2n1CCc1ccccc1,5,nt,nt,nt,-97,
COc1ccc(C2=Nc3cc(C)ccc3OC2)cc1,-7,-2,0,-2%,4.7,
COc1cc(N2Cc3ccccc3C2)ccc1C=O,5,nt,nt,nt,2.1,
COC(=O)c1ccccc1NC(=O)COC(=O)c1ccco1,12,1,-19,0%,-0.5,
CCC12CN(S(=O)(=O)c3ccc(C)cc3)CC(CC)(CN(S(=O)(=O)c3ccc(C)cc3)C1)C2=O,-5,3,12,2%,nt,
O=C1C(NS(=O)(=O)c2cccs2)=C(N2CCN(c3cccc(Cl)c3)CC2)C(=O)c2ccccc21,99,-17,-19,73%,10,
O=C(COC(=O)Cc1ccccc1F)Nc1ccc(SC(F)F)cc1,nt,3,-8,92%,3.7,

# Ordered by count of non-hydrogen atoms (rising): part of the list above
SMILES,Mtb bLac sens,Arbovirus anti,YopH PTP inh,Mtb growth,RecA intein inh,others
COc1ccc(C2=Nc3cc(C)ccc3OC2)cc1,-7,-2,0,-2%,4.7,
Cc1nn(Cc2ccc(Cl)cc2)c2sc(C(=O)O)cc12,-6,1,nt,-2%,-0.9,
CCOC(=O)c1ccc(NC(=O)CN2C(=O)CCC2=O)cc1,-3,7,13,-8%,-0.1,
N=c1c(C(=O)NC2CCCCC2)cc2c(=O)n3ccccc3nc2n1CCc1ccccc1,5,nt,nt,nt,-97,

# Carrying on.
SMILES,Mtb bLac sens,Arbovirus anti,YopH PTP inh,Mtb growth,RecA intein inh,others
O=c1c(Br)c(N2CCCC2)cnn1-c1ccccc1,2,-4,-28,-8%,-0.1,
Clc1cccc(CN2CCC(Cc3ccccc3)CC2)c1,-12,3,-7,6%,2.5,
O=C(NC1CCCC1)C(c1ccccc1)N(C(=O)c1ccno1)c1ccccc1 (stereo unspecified),-10,1,-13,-8%,nt,
O=C(N/N=C/c1c[nH]c2ccc(Br)cc12)c1ccn(Cc2ccc(Cl)cc2)n1,-1,-23,-27,nt,15,
Cc1cc(=O)oc2c(C)c(OC(C)C(=O)NCC3CCC(C(=O)O)CC3)ccc12 (stereo unspecified),3,nt,nt,nt,-0.5,
COc1ccc(C(=O)NCCNC(=O)c2cnccn2)cc1OC,0,nt,nt,nt,-2.3,
Cn1c(COc2ccc(F)cc2)nnc1SCC(=O)NC1CC1,-2,nt,nt,nt,1.9,
CCC(C)c1ccc(NC(=O)C2CCN(c3ccc(C(F)(F)F)cn3)CC2)cc1 (stereo unspecified),60,0,-26,56%,-4.4,
Cc1noc(C)c1CSCC(=O)N(C)CC(=O)Nc1ccc(Cl)c(Cl)c1,0,nt,nt,nt,3.8,
CCc1ccc(/C([O-])=C(/C(=S)NCCN2CCOCC2)[n+]2ccccc2)cc1,-9,-4,nt,0%,-4.6,
CCN(CC)C(=O)CSc1ncnc2c1cnn2Cc1ccccc1,-2,-8,-25,-80%,-8.4,
O=C(CCn1cccc1)Nc1cccc(F)c1,-13,-1,-44,1%,-1.7,
CCOc1ccc(CCNC(=O)CCNC(=O)c2ccco2)cc1OCC,-1,nt,nt,nt,0.9,
CC(=O)c1cc(-c2ccccc2)n(CC(=O)NC(C)(C)C)c1C,-13,14,nt,8%,0.1,
Cc1nnc(SCC(=O)NCc2ccccc2)[nH]c1=O,-5,3,-11,-5%,2.0,
N#C/C(=N\Nc1ccccc1)C(N)=S,34,nt,nt,7%,6.5,
Cc1noc(C)c1COc1ccc(CC(=O)NC2CCCCCC2)cc1,2,-5,nt,1%,-0.9,
COc1ccccc1N1CCN(S(=O)(=O)c2cn(C)nc2C)CC1,0,nt,nt,nt,0.7,
CC(C)(C)SCCNC(=O)CN(c1ccc(F)c(Cl)c1)S(C)(=O)=O,-10,2,12,0%,0.0,
CN(C)c1cc[n+](CC(=O)N2CCCc3ccccc32)cc1,2,3,nt,4%,2.3,
COC(=O)c1cc(NC(C)=O)ccc1N1CCOCC1,-5,10,nt,6%,-1.2,
O=C(NC1CCN(C(=O)Nc2ccccc2Cl)CC1)c1ccccc1,0,12,nt,-5%,-3.9,
O=C(NCC1CCCO1)c1onc(CSc2ccccc2)c1C(=O)O (stereo unspecified),-2,1,-65,-11%,-0.5,
CCCNC(=O)Cn1sc2nc(C)cc(C)c2c1=O,-6,nt,nt,-17%,0.2,
O=c1[nH]cc(S(=O)(=O)Nc2ccc3c(c2)OCO3)c(=O)[nH]1,-6,nt,nt,nt,3.0,

# (continued)
SMILES,Mtb bLac sens,Arbovirus anti,YopH PTP inh,Mtb growth,RecA intein inh,others
Cc1cccc2c(N=Nc3ccc(S(=O)(=O)Nc4ccc(Cl)cc4)cc3[N+](=O)[O-])c(O)[nH]c12,-14,2,nt,2%,1.1,
O=C(c1ccccn1)N(Cc1cc2ccccc2[nH]c1=O)C1CCCCC1,1,5,-31,-5%,0.5,
O=C(Nc1ccccc1)C1CC2CCCC(C1)C2=O (stereo unspecified),7,-1,-6,-14%,-1.9,
CC1Cc2nc(SCC(=O)NCCc3ccccc3)n(C)c(=O)c2S1 (stereo unspecified),2,10,-21,-1%,-0.5,Arbovirus anti repeat=3
CCCCc1ccc(/C=C(\C#N)C(N)=S)s1,nt,-14,nt,-7%,nt,
O=C(Nc1ccc(OCC(F)(F)C(F)F)c(C(F)(F)F)c1)c1ccccc1,-2,nt,0,12%,0.3,
NNC(=O)c1n[nH]c(=O)c2ccccc12,-4,nt,nt,-6%,-1.7,
CN1CCN(CC(O)COc2ccc(Cl)cc2)CC1 (stereo unspecified),-9,4,-27,4%,2.7,
CCC(=O)N1CCc2cc(S(=O)(=O)NCCC(=O)NC3CCCCCC3)ccc21,1,nt,nt,nt,-0.2,
O=C(COC(=O)c1ccccc1C(=O)c1ccccc1)NCCc1ccccc1,-2,-3,1,-14%,7.1,
Cc1ccc(C(=O)Nc2cc([N+](=O)[O-])ccc2F)s1,5,0,-1,4%,-0.5,
Cc1ccc(N=C2C(=O)Nc3ccccc32)cc1,4,nt,nt,nt,2.2,
COC(=O)CCC(=O)OC1(C)C(=O)C2=COC(c3ccc(OC)cc3)=CC2=C(Br)C1=O (stereo unspecified),-3,nt,nt,-9%,-2.5,
Cc1occc1C(=O)NNC(=S)Nc1cccc([N+](=O)[O-])c1,14,-11,-44,-4%,-1.1,
Cc1ccc(C)c(S(=O)(=O)NC2CCS(=O)(=O)C2)c1 (stereo unspecified),-12,nt,nt,nt,-2.1,
COC(=O)N/N=C/c1cc(Cl)c(OCc2ccc(F)cc2)c(OC)c1,-4,-21,-14,0%,-0.4,
O=C(N1CCOCC1)N1CCN(Cc2ccccc2)CC1,-1,4,-8,-6%,nt,
N/C(=N/O)c1nc(N2CCCCC2)nc(N2CCCCC2)n1,93,4,1,6%,0.0,
COc1ccc(/C=N/NC(=O)c2c(C)nc3ccc(Br)cn23)cc1OC,-1,nt,nt,-7%,1.8,
Cc1ccc(C2=N/C(=C\c3cccnc3)C(=O)O2)cc1,6,3,-11,-2%,-0.7,
O=C(Cn1cnc2cc([N+](=O)[O-])ccc2c1=O)Nc1ccccc1-c1ccccc1,-2,nt,nt,nt,-3.5,

# An excerpt; rates above refer to the full screens.
